# Source: PubChem BioAssay
# HCMV UL50-53 inh – cytomegalovirus nuclear egress complex inhibition. AID 1918969. inhibition, % (no concentration beside the values). HTRF UL50-UL53 interaction, normalized percent inhibition. 0.15% of 190,000 active;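 active = both replicates at 50% or more, plus weaker picks with an unusually low signal ratio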;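 also: stock transfer was 100 nL into about 20 µL; 0% = negative control wells and 100% = wells with untagged competitor protein; inactives centre near -12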
# Sa growth inh – blocks Staphylococcus aureus growth; S. aureus RN4220 growth, OD600, 20 h, 42 °C; active compounds read low; relative growth, % (concentration not given with the values); 0.53% of 170,000 active; AID 720641;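 active = growth at 42 °C up to 50% and 20 or more points under that at 30 °C, or under 10% at both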;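 also: 300 nL library stock went into each well; scaled to the means of positive and negative controls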
# GIV Gai3 FP – blocks GIV peptide binding to rat Galpha-i3 | P08753 | AID 1224905 | 0.42% of 210,000 active | Galpha-i3/FITC-GIV peptide fluorescence polarization, 90 min; active compounds read low; scaled: aluminum fluoride 0%, vehicle 100% | percent of control (FP), % (concentration not given with the values);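 active = replicate mean at 85% of control or lower, very high polarization wells dropped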;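 also: wells of about 15 µL received 100 nL stock; the first replicate is given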
# Target sequence (P08753 whole entry, looked up): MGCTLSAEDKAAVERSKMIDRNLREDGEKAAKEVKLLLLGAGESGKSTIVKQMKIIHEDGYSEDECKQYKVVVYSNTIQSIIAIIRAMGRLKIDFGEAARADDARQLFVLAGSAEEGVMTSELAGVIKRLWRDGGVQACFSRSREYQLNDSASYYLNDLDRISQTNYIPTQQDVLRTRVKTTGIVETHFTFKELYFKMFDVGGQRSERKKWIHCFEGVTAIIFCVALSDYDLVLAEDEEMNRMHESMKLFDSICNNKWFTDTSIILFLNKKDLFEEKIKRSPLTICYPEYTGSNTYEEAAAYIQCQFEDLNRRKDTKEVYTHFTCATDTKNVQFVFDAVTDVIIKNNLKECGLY
# Sa growth inh second temp – further read-out of Sa growth inh, marked with its call; relative growth, %; measured here: growth at 30 °C;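 optical density after 20 h as mean of two plates; 100% = untreated growth and lower means inhibition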
# * marks the source's active call; other numbers are inactive results; . = not tested or not shown.
SMILES,HCMV UL50-53 inh,Sa growth inh,Sa growth inh second temp,GIV Gai3 FP
Cc1nn(-c2ccccc2)c2c1cc1c(=O)[nH]c(=O)nc-1n2-c1cccc(Cl)c1,-74.2,98.9,91.3,100.8
Cc1ccc(-c2noc(CCC(=O)N3CCCC3)n2)c(=O)n1C(C)C,-21.1,.,.,102.5
Cc1ccc(N2C(=O)SC(Nc3ccccc3)C2=O)cc1 (stereo unspecified),-33.1,80.8,102.9,100.3
COc1ccc(C2c3ccsc3CCN2C(C)=O)cc1 (stereo unspecified),-6.0,100.6,92.2,99.3
CCCc1cc(=O)n2[nH]c(NC(=O)CC)nc2n1,-14.8,85.4,84.1,98.6
CCOc1ccccc1NC(=O)c1c(O)c2ccccc2[nH]c1=O,-19.1,.,.,106.0
COC(CN(C)C(=O)c1cn(C)c2ccc(S(=O)(=O)N3CCOCC3)cc2c1=O)OC,.,100.9,83.4,105.1
C[C@H](CCC(=O)O)[C@H]1CCC2C3C(=O)CC4CC(=O)CC[C@]4(C)C3CC(=O)[C@@]21C (stereo partly specified),-10.1,91.2,84.5,.
O=C1C(c2ccccc2)Nc2c3ccccc3nc(=S)n21 (stereo unspecified),.,57.9,82.3,98.0
Cc1c(C(=O)N2CCCC2)oc2c1-c1nn(CC(=O)NCCCOC(C)C)cc1CC2,.,90.3,90.9,89.8
CCOc1ccc(Nc2c(S(=O)(=O)c3ccc(C)cc3)cnc3ccccc23)cc1,-14.5,100.6,93.8,99.0
Cc1nc(-c2ccccc2)nc2[nH]c(C(C)C)cc(=O)c12,3.2,92.6,88.9,94.6
CCCCN(CC)C(=O)c1c[nH]c2ccc(S(=O)(=O)Nc3cccc(OC)c3)cc2c1=O,-5.1,98.7,87.1,101.1
Cc1ccc(C(=O)Nc2ccc(-c3nc4ccccc4o3)c(O)c2)cc1,-3.4,106.7,91.5,95.4
Cc1ccc(S(=O)(=O)Nc2ccccc2/C(O)=C(\C#N)c2nc3ccccc3n2C)cc1,.,94.0,93.0,103.4
CCOc1ccc(NC(=O)CN2C(=O)C3CCCC3=Nc3ccccc32)cc1 (stereo unspecified),5.7,.,.,100.8
COC(=O)C1CN(C(=O)c2cccs2)c2ccccc2O1 (stereo unspecified),-7.0,98.2,80.0,105.1
O=S(=O)(Nc1ncccn1)c1ccc(NC(=S)NCCN2CCOCC2)cc1,-12.1,82.4,96.7,.
Cc1onc(-c2ccccc2)c1C(=O)n1nnc2ccccc21,.,108.6,98.0,99.8
CCOC(=O)c1c(NC(=O)CSc2nc(-c3ccccc3)cc(C(F)(F)F)n2)sc(C)c1C,-4.8,88.0,92.0,110.4
Cc1ccccc1CN1CCN(CC(=O)NCc2cccs2)C1=O,-19.9,93.6,90.3,102.1
O=C(c1ccc(F)cc1)N1CCN(CCc2ccccn2)CC1,10.3,.,.,98.1
COc1ccc(NC(=O)CSc2nnc(N)s2)cc1,-47.6,104.2,88.0,104.1
CCc1ccc(NC(=O)CSc2nc3ncccc3[nH]2)cc1,.,95.7,46.9,103.4
CCc1ccccc1Nc1ccc(C(=O)O)cn1,-2.7,92.8,79.2,100.5
# Next section
SMILES,HCMV UL50-53 inh,Sa growth inh,Sa growth inh second temp,GIV Gai3 FP
CN(CCOc1ccc(Br)cc1)C(=O)c1n[nH]c2ccccc12,-18.1,82.0,85.3,.
O=C(CSc1nnc(Cc2cccs2)n1C1CCCCC1)N1CCCc2ccccc21,-2.3,107.4,102.3,.
CN(C)c1ccc(C(=O)Cc2ccccc2Cl)cc1,4.2,101.4,91.7,109.2
O=C(CSc1cc(N2CCCCC2)ncn1)NC1CCCC1,-39.4,.,.,102.1
COCCCNC(=O)CSC1=Nc2ccccc2C2=NC(CCC(=O)NCc3ccccc3OC)C(=O)N12 (stereo unspecified),.,97.2,88.2,98.6
Cc1cc(-c2ccccc2)nc2oc(C(=O)c3ccc(Cl)cc3)c(N)c12,2.5,80.6,90.6,102.6
CC(C)(C)S(=O)c1cccs1 (stereo unspecified),0.1,112.8,100.5,101.4
O=C(NCCc1nc2cccnc2n1Cc1ccccc1)NCc1ccccc1,-16.6,.,.,123.2
Cc1ccc(NC(=O)C2(N3C(=O)CC3c3ccco3)CCCCC2)cc1 (stereo unspecified),-16.1,83.1,85.1,100.5
CC1=C(C(=O)Nc2cccc(C)n2)C(c2cccc(Oc3ccccc3)c2)C2=C(CCCC2=O)N1 (stereo unspecified),8.5,.,.,105.5
COCc1cc(C)nc2sc3c(c12)NC1(CCCCC1)NC3=O,.,94.9,85.1,96.2
Oc1cccc(Nc2nc(NCC3CCCO3)c3ccccc3n2)c1 (stereo unspecified),7.9,85.8,67.5,.
CN(C)CCNC(=O)c1ccc(Cn2c(=O)c3cccn3c3cccnc32)cc1,.,98.8,90.3,105.1
O=c1[nH]c(O)c(C=Nc2ccccc2)c(=O)[nH]1,-10.9,103.3,92.3,153.7
COc1ccc(C2Nn3c(C)nnc3SC2C(=O)Nc2ccccc2C(F)(F)F)cc1 (stereo unspecified),-2.5,91.2,87.3,101.2
COc1cc(OC)cc(-c2cc3nc(C)c(CCC(=O)Nc4ccc(C(C)=O)cc4)c(C)n3n2)c1,-40.4,87.5,89.6,104.2
CC(C)[C@H](NC(=O)C1CCCCC1)c1nc2ccccc2[nH]1,-17.3,103.4,99.7,.
CCC(c1nnc(SCC(=O)NCCc2ccc(Cl)cc2Cl)o1)N(C)C (stereo unspecified),-11.9,87.8,86.6,.
O=C(OCCN1CCCC1=O)c1cnn2c(C(F)(F)F)cc(-c3ccccc3)nc12,-86.8,.,.,104.7
COc1ccccc1-c1cc(C(F)(F)F)n2ncc(C(=O)OCCN(C)c3nsnc3Cl)c2n1,-28.0,.,.,104.1
O=C(CCC1N=C2c3ccccc3N=C(SCC(=O)Nc3ccccc3F)N2C1=O)NCc1ccccc1 (stereo unspecified),-10.8,102.9,83.1,103.0
COc1cc(/C=C2/SC(=O)NC2=O)cc(Br)c1O,-60.4,55.8,11.9,106.1
O=C(CN1C(=O)CCC1=O)Nc1nnc(-c2cccnc2)o1,-29.3,83.7,83.1,103.1
CCOc1ccc(NC(=O)C2CCCN(c3ncnc4onc(-c5ccc(F)cc5)c34)C2)cc1 (stereo unspecified),-4.0,.,.,100.8
CCOc1ccc(C(=O)NCC(=O)O)cc1,27.8,99.5,102.5,.

# An excerpt from above in order of number of heavy atoms, smallest number first:
SMILES,HCMV UL50-53 inh,Sa growth inh,Sa growth inh second temp,GIV Gai3 FP
CCOc1ccc(C(=O)NCC(=O)O)cc1,27.8,99.5,102.5,.
O=c1[nH]c(O)c(C=Nc2ccccc2)c(=O)[nH]1,-10.9,103.3,92.3,153.7
CCc1ccccc1Nc1ccc(C(=O)O)cn1,-2.7,92.8,79.2,100.5
CN(C)c1ccc(C(=O)Cc2ccccc2Cl)cc1,4.2,101.4,91.7,109.2
Cc1nc(-c2ccccc2)nc2[nH]c(C(C)C)cc(=O)c12,3.2,92.6,88.9,94.6
O=C(CSc1cc(N2CCCCC2)ncn1)NC1CCCC1,-39.4,.,.,102.1
O=C(c1ccc(F)cc1)N1CCN(CCc2ccccn2)CC1,10.3,.,.,98.1
Cc1ccc(-c2noc(CCC(=O)N3CCCC3)n2)c(=O)n1C(C)C,-21.1,.,.,102.5
Cc1ccc(C(=O)Nc2ccc(-c3nc4ccccc4o3)c(O)c2)cc1,-3.4,106.7,91.5,95.4
O=C(NCCc1nc2cccnc2n1Cc1ccccc1)NCc1ccccc1,-16.6,.,.,123.2
Cc1c(C(=O)N2CCCC2)oc2c1-c1nn(CC(=O)NCCCOC(C)C)cc1CC2,.,90.3,90.9,89.8
CCOC(=O)c1c(NC(=O)CSc2nc(-c3ccccc3)cc(C(F)(F)F)n2)sc(C)c1C,-4.8,88.0,92.0,110.4
COc1cc(OC)cc(-c2cc3nc(C)c(CCC(=O)Nc4ccc(C(C)=O)cc4)c(C)n3n2)c1,-40.4,87.5,89.6,104.2
O=C(CCC1N=C2c3ccccc3N=C(SCC(=O)Nc3ccccc3F)N2C1=O)NCc1ccccc1 (stereo unspecified),-10.8,102.9,83.1,103.0

# Remaining list, next part
SMILES,HCMV UL50-53 inh,Sa growth inh,Sa growth inh second temp,GIV Gai3 FP
CCCCNc1nc2ccccc2n1Cc1cccc(OC)c1,-28.4,83.9,81.8,.
CCCCC(=O)NCCc1csc(-c2ccccc2)n1,-22.2,.,.,94.7
CCOc1cc(-c2cccc(Cl)c2)nc2ccc(C(=O)N3CCCCC3)cc12,-13.2,.,.,107.4
O=C(CN1C(=O)C2C3C=CC(C3)C2C1=O)N1CCN(Cc2ccccc2)CC1 (stereo unspecified),0.6,109.9,90.5,.
Cc1cc(C)c(C(=O)CSc2nnc(C)n2N)cc1C,2.5,96.1,92.3,.
COc1ccc(CNC(=O)c2cnn(-c3ccc(C)cc3)c2-n2cccc2)cc1OC,.,88.2,90.0,106.4
Cc1ccc(S(=O)(=O)c2nc(S(C)(=O)=O)sc2N2CCCC2)cc1,.,126.4,93.7,100.3
COc1ccc(C2CC(=O)c3cnc(NC4OC(=O)c5ccccc54)nc3C2)cc1OC (stereo unspecified),-15.9,.,.,90.8
CC(=O)N1CCN(c2ccc(N)cc2)CC1,9.7,91.5,89.7,.
COc1ccc(Br)cc1S(=O)(=O)Nc1cc(-c2cn3ccccc3n2)ccc1C,-14.0,102.2,79.5,94.0
Cc1ccc2oc(-c3ccccc3)cc(=NCCN(C)C)c2c1,.,112.1,39.7,94.9
Cc1cccc(Nc2cc(N3CCCCC3)ncn2)c1,-30.8,81.1,78.3,101.9
O=c1[nH]c2ncccc2nc1-c1ccccc1,.,103.1,89.2,106.0
O=C(O)c1ccc(F)c2ccccc12,12.6,105.2,87.9,97.8
Cc1nn(C)c(C)c1/C=C/C(=O)N1CCN(Cc2cccc(Cl)c2)CC1,-17.2,94.3,89.6,.
COC(=O)c1ccccc1Oc1c(F)c(F)nc(N2CCCCC2)c1F,-7.3,87.1,71.7,103.7
CCc1nn(CCCC(=O)N2CCN(c3cccc(C)c3C)CC2)c(=O)c2cc3occc3n12,0.8,102.8,93.5,99.7
CCCCn1cc(S(=O)(=O)c2ccc(C)c(C)c2)c(=O)c2cc(F)c(N3CCCC(C)C3)cc21 (stereo unspecified),.,112.0,89.9,104.6
CC(C)n1c(SCC(=O)c2ccccc2)nc2cc(Cl)ccc21,-2.4,82.3,74.0,101.2
O=C(CCCn1c(=O)c2cccn2c2ccc(F)cc21)NCCc1ccccc1,-6.3,90.8,63.0,99.9
CCOC(=O)c1c(NC(=O)c2ccc(Cl)s2)sc2c1CCN(C(C)=O)C2,-12.7,93.6,81.8,99.0
Nn1c(=S)[nH]c2cc(C(=O)O)ccc2c1=O,.,89.0,89.8,100.0
COC(=O)c1ccccc1SN,-4.7,99.6,86.2,100.9
CCN(CC)S(=O)(=O)c1ccc(C(=O)Nc2nnc(-c3ccc(S(C)(=O)=O)cc3)o2)cc1,-36.2,85.1,93.0,94.6
CCOC(=O)C1=C(C)N=c2s/c(=C\c3ccc(OC)c(O)c3)c(=O)n2C1c1ccc(OCC)c(OCC)c1 (stereo unspecified),1.5,.,.,105.5
# Further structures follow:
SMILES,HCMV UL50-53 inh,Sa growth inh,Sa growth inh second temp,GIV Gai3 FP
CC(=O)N1CCSc2ccc(S(=O)(=O)Nc3cccc(Cl)c3)cc21,-0.1,.,.,104.7
Cc1ccc(-c2cc(C(=O)Nc3nccs3)no2)cc1,-10.8,.,.,100.1
COC(=O)c1cnn(-c2ccccc2)c1C(OC)OC,-29.7,109.5,85.5,104.0
COc1ccccc1CNc1ncnc2c1cnn2-c1ccc(C)cc1,.,91.4,85.8,101.2
COc1ccc(S(=O)(=O)NCc2ccc3c(c2)CCN3C(=O)c2ccccc2)cc1OC,.,92.2,81.5,103.8
COc1ccc(-c2csc(N/N=C\c3ccc(O)cc3)n2)cc1,-48.3,72.0,54.3,108.9
Cn1c(=O)c2c(nc(Sc3nc4ccccc4n3CC(=O)NC3CCCCC3)n2C)n(C)c1=O,4.9,87.9,92.8,94.2
Cc1cc(=O)oc2cc(OC(C)C)c(Cl)cc12,-27.5,98.7,84.5,.
COc1ccc(S(=O)(=O)N(C)c2ccnc(C(=O)N3CCc4ccccc43)c2)cc1,-30.7,100.2,86.3,101.1
O=C(Nc1ccc2c(c1)CS(=O)(=O)C2)c1cccs1,-13.5,105.2,76.9,104.1
O=C(CCCC(=O)c1ccccc1)Nc1ccc(O)cc1,.,82.8,82.2,101.0
CC(C)(C)C(=O)CSc1nc2ccccc2c(=O)n1CCCN1CCCC1=O,7.4,80.1,73.3,106.1
COc1ccc(CNC(=O)CSc2nc3cccnc3s2)cc1,-5.7,101.4,93.5,105.2
CCN(C(=O)c1coc(=O)c2ccccc12)c1cc(OC)ccc1OC,.,141.6,76.9,103.4
Cc1noc(C)c1S(=O)(=O)NCc1ccccn1,2.7,108.8,103.4,101.7
O=C(Nc1ccccc1)c1snc2c(=O)[nH]cnc12,-95.3,106.4,103.3,100.9
CCc1cccc(C)c1NC(=O)CCS(=O)(=O)c1ccc2c(c1)oc(=O)n2C,.,90.0,80.6,111.3
Cn1c(SCC(=O)N2CCCCC2)nc2ccccc2c1=O,-1.1,114.2,97.3,103.2
COc1ccccc1N1CCN(C(=O)C(OC(C)=O)c2ccccc2)CC1 (stereo unspecified),.,97.8,80.9,99.7
Cn1c(=O)c2c(nc3n(C4CC4)c(-c4ccccc4)cn23)n(C)c1=O,1.0,101.2,92.7,109.4
CCc1ccccc1Nc1nc(N)nc(CSc2nnc(-c3cccs3)n2CC2CCCO2)n1 (stereo unspecified),-16.1,100.2,93.6,.
Cc1cc(-c2ccccc2C(=O)NCc2ccccc2)on1,.,102.7,88.5,105.2
